# NPYLR7 agonist = mosquito NPYLR7 agonism. HEK293T NPYLR7/Galpha15, GCaMP6s calcium fluorescence. activation, % at 10 µM. 270,000 compounds, 0.15% hits. AID 1259423; in the data active means activation above about 40%;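 further: 0% = vehicle and 100% = reference agonist at the receptor; some compounds past the cut are filed as inactive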
# NPYLR7 agonist max-min = also measured in NPYLR7 agonist; calls as there; activation, %; measured here: Max-Min RFU normalised activation; some inactives read as strong as hits;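 span of the calcium signal over five minutes; 0% = vehicle and 100% = native peptide agonist; compound fluorescence can raise it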
# Starred values were filed as active, the others as inactive; & = joins results of further samples.
(1) CC(C#N)N1CCN(S(=O)(=O)c2ccc3c(c2)CCC3)CC1 (stereo not drawn)
(2) COC(=O)c1ccc(CN2CCCC(CO)(Cc3ccccc3)C2)cc1 (stereo not drawn)
(3) COC(=O)CCc1c(C)nn(-c2ccc(C(=O)Nc3cccc(OC)c3)cc2)c1C
(4) CCOC(=O)Cn1c(=O)c2c(nc3n(CCOC)c(C)c(C)n23)n(C)c1=O
(5) COc1ccc(N2C(=O)CN(CCc3ccc(F)cc3)C3CS(=O)(=O)CC32)cc1 (stereo not drawn)
(6) COc1ccccc1NC(=O)N1CCC2(CC1)SCCN2C(=O)COc1ccc(Cl)cc1
(7) Cc1nnc(SCC(=O)N(C2CCCC2)C2CCS(=O)(=O)C2)s1 (stereo not drawn)
(8) Cc1nc(N2CCOCC2)nc(N2CCCC2)c1[N+](=O)[O-]

Compound | 1 | 2 | 3 | 4 | 5 | 6 | 7 | 8
NPYLR7 agonist | -1 | -4&22 | 0 | 9 | 4 | 19 | -1 | 6
NPYLR7 agonist max-min | 1 | -6&19 | 3 | 6 | 3 | 17 | 27 | 3

(9) COc1ccccc1C(=O)Nc1ccc2oc(-c3ccc(N(C)C)cc3)nc2c1
(10) CS(=O)(=O)Oc1ccc(CN(Cc2ccco2)S(=O)(=O)c2ccccc2)cc1
(11) CCc1ccc(/C=C/S(=O)(=O)Nc2onc(C)c2C)cc1
(12) Cc1ccc(Cc2nsc(N3CCN(C(=O)Nc4ccc(Br)cc4)CC3)n2)cc1
(13) Cc1ncc([N+](=O)[O-])n1CCNC(=O)CC(c1ccccc1)(c1ccccc1)c1ccccc1
(14) Cc1ccc(-n2nnnc2SCc2nnnn2-c2ccccc2)c(C)c1
(15) COCCN(Cc1ccccc1)S(=O)(=O)N1CCCC1
(16) C=CCN(C(=O)c1ccc(-c2ccc(F)cc2)s1)C1CCCCC1

Compound | 9 | 10 | 11 | 12 | 13 | 14 | 15 | 16
NPYLR7 agonist | -3 | 19 | -3&7 | -12 | 1 | 7 | 9 | -4
NPYLR7 agonist max-min | 12 | 22 | -4&2 | -4 | -4 | 2 | 6 | -3

(17) Cc1nnc(SC2=C3CCCCC3(c3ccccc3Cl)N(C)C2=O)n1C1CC1 (stereo not drawn)
(18) Cc1cccc(C(=O)N2CCOc3ccc(C(O)CCc4ccccc4)cc3C2)c1C (stereo not drawn)
(19) CSc1ccc(CN2C(=O)C(C)ON=C2c2ccc(N(C)C)cc2)cc1 (stereo not drawn)
(20) CCc1nc2c(OCc3ccc(Cl)cc3)cccn2c1N(C)C(=O)c1ccccc1F
(21) CCOC(=O)C1(CCCc2ccccc2)CCCN(C(=O)CCSC)C1 (stereo not drawn)
(22) O=C1OCCN1CC(=O)N1CCc2c([nH]c3ccccc23)C1c1ccccn1 (stereo not drawn)
(23) O=c1nc(SCc2ccccc2Cl)nc2ccccn12
(24) O=C1CCCC2=C1C(c1ccncc1)NC(=O)N2Cc1ccccc1 (stereo not drawn)

Compound | 17 | 18 | 19 | 20 | 21 | 22 | 23 | 24
NPYLR7 agonist | 0 | -9 | 17 | -6 | 0 | 2&4 | 2 | -5
NPYLR7 agonist max-min | -2 | -8 | 8 | 3 | -6 | 0&0 | -1 | -6

(25) CCc1nc(NCCC(C)C)c(C#N)c2c1COC(C)(C)C2
(26) CN(CCC#N)S(=O)(=O)NCCCc1ccccc1
(27) CN=C(N)NCCC[C@H](N)C(=O)O
(28) CSc1nnc(CNC(=O)C23CC4CC(CC(C4)C2)C3)n1CCc1ccccc1
(29) COc1cccc(NC(=O)C2(C)CCCN(C(C)C)C2)c1 (stereo not drawn)
(30) Cc1csc(NC(=O)CSc2nc(=O)n(CCO)c3c2CCCC3)n1
(31) O=C(O)C1COC2(CCN(C(=O)c3ccc(Cl)cc3)CC2)N1C(=O)c1cccc(F)c1 (stereo not drawn)
(32) CN(Cc1ccccc1)C(=O)C1CCN(c2ccc(C(F)(F)F)cc2[N+](=O)[O-])CC1

Compound | 25 | 26 | 27 | 28 | 29 | 30 | 31 | 32
NPYLR7 agonist | 6 | 5 | -4&-10&1 | -1 | 1 | -9 | 12 | 10
NPYLR7 agonist max-min | 2 | 1 | 2&-17&-6 | -4 | -2 | -20 | 19 | 8

(33) CC(C)CCN(Cc1c(-c2ccccc2F)noc1N1CCOCC1)CC(O)COc1ccccc1 (stereo not drawn)
(34) O=C(c1ccco1)N1CCN(Cc2nc(-c3ccc(Cl)cc3)no2)CC1
(35) CCCCn1c(N)c(N(Cc2ccco2)C(=O)c2ccc(C#N)cc2)c(=O)[nH]c1=O
(36) Cc1ccccc1-n1ncc(C(C)NC(=O)c2cccc(N3CCCC3=O)c2)c1C (stereo not drawn)
(37) CC(NC(=O)C12CC3CC(CC(C3)C1)C2)C(=O)NC(C)(C)CO (stereo not drawn)
(38) CCCCNC(=O)CCc1nnc(C2CCCCC2)o1
(39) CCOc1ccc(S(=O)(=O)Nc2ccc(F)cc2Cl)cc1OCC
(40) Cc1nc(NC(=O)c2cccc3c2OC(C)C3C)sc1-c1nccn1C(F)F (stereo not drawn)

Compound | 33 | 34 | 35 | 36 | 37 | 38 | 39 | 40
NPYLR7 agonist | 8 | -1 | 10 | 13 | 14 | 1 | 7 | 7
NPYLR7 agonist max-min | 7 | 10 | 6 | 2 | 12 | 0 | 4 | 7

(41) CCc1ncc(CN2C[C@@H]3CN(C(=O)C4CC4)C[C@]3(C(=O)O)C2)cn1
(42) COc1ccc(CCNC(=O)c2ccccc2NS(=O)(=O)c2cccc(Cl)c2)cc1
(43) O=C(Nc1ccc(C2SCC(=O)N2c2ccc3c(c2)OCCO3)cc1)c1ccc(Cl)cc1 (stereo not drawn)
(44) N#Cc1ccccc1COC(=O)CCn1cnc2ccccc2c1=O
(45) COc1ccc(C(=O)NCCCN=C2NS(=O)(=O)c3ccccc32)cc1OC
(46) C=C(C)Cn1c(=O)c2c(nc3oc(-c4ccccc4)cn32)n(C)c1=O
(47) CS(=O)(=O)Nc1ccc(CN2CCOC(C#N)C2)cc1 (stereo not drawn)
(48) Cc1c(C(=O)N2CCN(C(=O)C(C)Cl)CC2)cc(-c2ccc(Cl)cc2)n1-c1ccccc1F (stereo not drawn)

Compound | 41 | 42 | 43 | 44 | 45 | 46 | 47 | 48
NPYLR7 agonist | -1 | 0 | 7 | 1 | 4 | 2 | 9 | 15
NPYLR7 agonist max-min | -6 | 1 | 3 | -3 | 0 | -2 | 1 | 23

(49) COCCCN1CCC(NC(=O)C2(c3cccc(C)c3)CC2)CC1
(50) Cc1cc(C)n(CCn2ccnc2-c2ccc(-c3ccn[nH]3)s2)n1
(51) CSc1nn(CC(=O)Nc2cccc(C)c2C)c(N)c1S(=O)(=O)c1ccccc1
(52) COc1ccc(-c2nc(CNC(=O)c3c(C)noc3-c3cccs3)c(C)o2)cc1
(53) CC(C)CN1CC(c2ncc(-c3ccc4c(c3)OCCO4)[nH]2)CC1=O (stereo not drawn)
(54) COc1cc(C(=O)Nc2ccn(C)n2)ccc1OCc1ccccc1Cl
(55) CCC(Sc1ncnc2c1nnn2-c1ccc(OC)cc1)C(=O)OC (stereo not drawn)
(56) O=C(NC1CC2CCC(C1)N2Cc1ccc2c(c1)OCO2)c1c(F)c(F)c(F)c(F)c1F (stereo not drawn)

Compound | 49 | 50 | 51 | 52 | 53 | 54 | 55 | 56
NPYLR7 agonist | 0 | 1 | 14 | 5 | 23 | -13 | 11 | 6
NPYLR7 agonist max-min | 1 | -4 | 9 | 6 | 3 | -17 | 11 | 5

(57) Fc1ccc(Cc2nnc(-c3ccc(F)cc3)o2)cc1
(58) Cc1ccc(NS(=O)(=O)c2cccc(C(=O)Nc3cccc(C)c3)c2)cc1
(59) Cc1ccc(S(=O)(=O)N2CCN(C(c3ccccc3)c3ccc(Br)cc3)CC2)cc1F (stereo not drawn)
(60) CC(C)(C)c1ccc(C(=O)N2CCC2(C)C(=O)NS(=O)(=O)c2ccccc2)cc1 (stereo not drawn)
(61) O=S(=O)(NC1CCSc2ccccc21)c1ccc2c(c1)OCCCO2 (stereo not drawn)
(62) Cc1ccc(C)c(NC(=O)c2nnn(Cc3nc(-c4ccccc4C)oc3C)c2C)c1
(63) CC(Oc1ccc(Cl)cc1Br)C(=O)N1CCNC1=O (stereo not drawn)
(64) O=C1CCCN1CC1CCN(C(=O)c2ccc(-c3ccncc3)nc2)CC1

Compound | 57 | 58 | 59 | 60 | 61 | 62 | 63 | 64
NPYLR7 agonist | 5 | -13 | 29 | 2 | 8 | 6 | 3 | 0
NPYLR7 agonist max-min | 3 | -17 | 14 | -1 | 4 | 0 | 3 | -5

(65) COCCNCC(=O)N1CCc2sccc2C1c1ccc(F)cc1 (stereo not drawn)
(66) Cc1ccc(OCc2nc(CN(C(=O)c3ccccc3C)C3CC3)cs2)cc1C
(67) COCCN(CC(=O)N(Cc1ccccc1)Cc1ccc(C)o1)C(=O)Nc1cccc(C(F)(F)F)c1
(68) COc1ccc(NS(=O)(=O)c2ccc(F)cc2F)cc1Cl
(69) Cc1nc2ccc(Cl)cc2cc1C(=O)N1CCCC(C(=O)NC2CC2)C1 (stereo not drawn)
(70) Cc1ccc(C(=O)Cn2nc(-c3ccccc3)c3sc(N4CCOCC4)nc3c2=O)c(C)c1
(71) COc1ccc(-c2cnc(SCCNC(=O)COc3ccccc3)[nH]2)cc1
(72) COc1cccc(N=C2SC(C(=O)Nc3ccc(F)cc3)CC(=O)N2C)c1 (stereo not drawn)

Compound | 65 | 66 | 67 | 68 | 69 | 70 | 71 | 72
NPYLR7 agonist | -9 | 23 | -2 | -2 | -19 | -4 | 3 | 0
NPYLR7 agonist max-min | -18 | 14 | 0 | -3 | -20 | -8 | 3 | -2

(73) COc1ccc(-n2c(-c3ccccc3)cc(C(=O)NCCc3ccccn3)c2C)c(OC)c1
(74) CCn1nc(C(=O)N(CC2CCCO2)c2nc3c(OC)ccc(Cl)c3s2)cc1C (stereo not drawn)
(75) O=C(Cn1cc(OCc2ccccc2F)c(=O)cc1CO)NC1CCCC1
(76) COCCN1CCN(c2c(-c3ccc(OC)cc3)cnc3ncnn23)CC1
(77) CSc1nnc(C)c(=O)n1COC(=O)c1ccc2ccccc2c1
(78) C[n+]1ccccc1Sc1nnc(-c2ccccc2)c(-c2ccccc2)n1
(79) O=S(=O)(c1c(F)cccc1F)N1CCN(CC(OCc2ccc(C(F)(F)F)cc2)c2ccc(Cl)cc2)CC1 (stereo not drawn)
(80) O=C(CCc1nc2ccccc2[nH]1)NCCCCc1ccccc1

Compound | 73 | 74 | 75 | 76 | 77 | 78 | 79 | 80
NPYLR7 agonist | 3 | -2 | 2 | 9 | 15 | 4 | 24 | 1
NPYLR7 agonist max-min | 2 | -3 | 0 | 13 | 11 | 1 | 15 | 6

(81) CCOC(=O)N(C)c1c(CC)nc2ccc(C(=O)Nc3cccc(NS(C)(=O)=O)c3)cn12
(82) O=C(C1CCCC1)N(Cc1nccn1Cc1ccccc1C(F)(F)F)C1CCCCC1
(83) COc1ccc(C(=O)N[C@@H]2CCCCC2NC(=O)C2CCCN(C(=O)c3cc(OC)cc(OC)c3)C2)cc1 (stereo partly drawn)
(84) O=C(O)c1cccc(CC2CCN(Cc3cnc(-c4ccccn4)nc3)C2)c1 (stereo not drawn)
(85) O=C(CCc1cscn1)Nc1ncccc1Br
(86) COc1ccc2cccc(CCNC(C)=O)c2c1
(87) COc1cc(S(=O)(=O)NCc2ccccc2Cl)c(C)cc1C
(88) CSc1nccc(NCC2CNCCOC2)n1 (stereo not drawn)

Compound | 81 | 82 | 83 | 84 | 85 | 86 | 87 | 88
NPYLR7 agonist | 17 | -2 | -1 | 1 | -5 | -21 | 3 | -2
NPYLR7 agonist max-min | 11 | 9 | -4 | -3 | -4 | -32 | 1 | -10

# Of the compounds above, 19 have an aryl methoxy group:
(3) COC(=O)CCc1c(C)nn(-c2ccc(C(=O)Nc3cccc(OC)c3)cc2)c1C
(5) COc1ccc(N2C(=O)CN(CCc3ccc(F)cc3)C3CS(=O)(=O)CC32)cc1 (stereo not drawn)
(6) COc1ccccc1NC(=O)N1CCC2(CC1)SCCN2C(=O)COc1ccc(Cl)cc1
(9) COc1ccccc1C(=O)Nc1ccc2oc(-c3ccc(N(C)C)cc3)nc2c1
(29) COc1cccc(NC(=O)C2(C)CCCN(C(C)C)C2)c1 (stereo not drawn)
(42) COc1ccc(CCNC(=O)c2ccccc2NS(=O)(=O)c2cccc(Cl)c2)cc1
(45) COc1ccc(C(=O)NCCCN=C2NS(=O)(=O)c3ccccc32)cc1OC
(52) COc1ccc(-c2nc(CNC(=O)c3c(C)noc3-c3cccs3)c(C)o2)cc1
(54) COc1cc(C(=O)Nc2ccn(C)n2)ccc1OCc1ccccc1Cl
(55) CCC(Sc1ncnc2c1nnn2-c1ccc(OC)cc1)C(=O)OC (stereo not drawn)

Compound | 3 | 5 | 6 | 9 | 29 | 42 | 45 | 52 | 54 | 55
NPYLR7 agonist | 0 | 4 | 19 | -3 | 1 | 0 | 4 | 5 | -13 | 11
NPYLR7 agonist max-min | 3 | 3 | 17 | 12 | -2 | 1 | 0 | 6 | -17 | 11

(68) COc1ccc(NS(=O)(=O)c2ccc(F)cc2F)cc1Cl
(71) COc1ccc(-c2cnc(SCCNC(=O)COc3ccccc3)[nH]2)cc1
(72) COc1cccc(N=C2SC(C(=O)Nc3ccc(F)cc3)CC(=O)N2C)c1 (stereo not drawn)
(73) COc1ccc(-n2c(-c3ccccc3)cc(C(=O)NCCc3ccccn3)c2C)c(OC)c1
(74) CCn1nc(C(=O)N(CC2CCCO2)c2nc3c(OC)ccc(Cl)c3s2)cc1C (stereo not drawn)
(76) COCCN1CCN(c2c(-c3ccc(OC)cc3)cnc3ncnn23)CC1
(83) COc1ccc(C(=O)N[C@@H]2CCCCC2NC(=O)C2CCCN(C(=O)c3cc(OC)cc(OC)c3)C2)cc1 (stereo partly drawn)
(86) COc1ccc2cccc(CCNC(C)=O)c2c1
(87) COc1cc(S(=O)(=O)NCc2ccccc2Cl)c(C)cc1C

Compound | 68 | 71 | 72 | 73 | 74 | 76 | 83 | 86 | 87
NPYLR7 agonist | -2 | 3 | 0 | 3 | -2 | 9 | -1 | -21 | 3
NPYLR7 agonist max-min | -3 | 3 | -2 | 2 | -3 | 13 | -4 | -32 | 1

# This is a subset, so the mix of outcomes need not match the whole.
